Compound activity as filed in PubChem BioAssay.
Ba CapD inh: Bacillus anthracis CapD inhibitors, primary screen, biochemical, fluorescence intensity | purified CapD enzyme, fluorescence intensity read-out; stronger effect = lower value; some hits fall short of the stated cut | z-score (test concentration not listed) | CapD gamma-glutamyltranspeptidase (Bacillus anthracis Ames Ancestor) | hit rate 0.23% among 140,000 | AID 492967, 2010;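 active means z-score under -4 in either of two replicates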;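 further: stock transfer was 100 nL into about 40 µL; score is relative to mean and spread of the plate; one replicate is shown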
AID504770: growth inhibition of E. coli YBA685, primary screen, V. cholerae RctB inhibitors | E. coli YBA685 rctB-dependent plasmid, OD600 growth, 3 h; stronger effect = lower value | z-score (test concentration not listed) | hit rate 0.27% among 130,000 | AID 504770, 2011;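 active means z-score under -2 on both plates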;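 further: wells of about 30 µL received 100 nL stock; score is relative to mean and SD of the test wells; the first replicate is given; strong numbers were not always called active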
Numbers without * were called inactive; x = no result given; & = joins results of further samples. Only part of the results is shown; count on the stated rates, not on these rows.

Values run as follows: Ba CapD inh, AID504770
N#Cc1cc(-c2cccc(C(F)(F)F)c2)cnc1Sc1cccc(Cl)c1
→ -0.52, x
Cc1ccc(N2CS(=O)/C(=C/Nc3ccc(Cl)cc3)C2=O)cc1 (stereo not drawn)
→ 0.08, -0.7
Cc1cc(C)c(C2=NON3N(C(=O)c4ccc(Cl)cc4)c4ccccc4N23)c(C)c1
→ 0.2, x
Nc1nc(COC(=O)C2COc3ccccc3O2)nc(Nc2ccccc2)n1 (stereo not drawn)
→ x, -0.95
Cc1nc(-c2ccc(-c3csc(-c4cnccc4C(F)(F)F)n3)cc2)no1
→ 0.34, 0.6
O=C1c2ccc(-c3nc4ccc(Cl)cc4c(=O)o3)cc2C(=O)N1CC1CCCO1 (stereo not drawn)
→ -0.46, -0.25
CCC(=O)Nc1nc2ccccc2n1CCN1CCCC1
→ -0.15, -0.3
FC(F)(F)c1cc(-c2ccccc2)nc(NCCc2ccccc2)n1
→ -0.32, x
N#Cc1c(Cl)ncc2c1N(Cc1ccccc1)CC2
→ 3.4, 1.4
O=C(O)C1C2C=CC(C2)C1C(=O)NCCO (stereo not drawn)
→ x, -0.6
COC(=O)c1c(C)oc2cc(Br)c(OC(=O)c3ccc(Cl)cc3)cc12
→ -0.29, x
COC(=O)c1cc(COC(=O)/C=C/c2cnc3ccccc3n2)oc1C
→ x, -0.35
CSc1ccc(S(=O)(=O)NCCC2=CCCCC2)cc1
→ -0.38, -0.65
CC(=O)Nc1ccc(N/C=C(/C#N)c2nc(-c3ccc(Cl)cc3)cs2)cc1
→ -0.28, 0.1
O=C(Cn1c(-c2ccccn2)nc2ccccc21)N=Nc1c(O)n(Cc2ccc3c(c2)OCO3)c2ccccc12
→ -0.18, x

More entries:
Values run as follows: Ba CapD inh, AID504770
COc1ccc(C2/C(=C(/O)c3ccc(F)cc3)C(=O)C(=O)N2c2nccs2)cc1 (stereo not drawn)
→ -0.03, x
Cc1cccc(-c2ocnc2C(=O)Nc2ccccc2CN(C)C2CCCCC2)c1
→ x, -0.45
Cc1cc(Nc2ccc(O)cc2)c2ccccc2n1
→ -3.6, -0.25
CCc1cc2c(=O)c(-c3ccc4c(c3)OCO4)coc2cc1O
→ 0.28, -1.1
CC(C)(C)NC(=O)Nc1ccccc1C(N)=O
→ 1.3, -0.55
Cc1nccn1CC1CCc2c(c3ccccc3n2C)C1=O (stereo not drawn)
→ -0.2&0.76, 2
CCC(Oc1ccccc1)C(=O)Nc1sc2c(c1C(N)=O)CCCC2 (stereo not drawn)
→ 1.7, -0.85
Cc1ccc(/C(O)=C2\C(=O)C(=O)N(c3nncs3)C2c2ccc(C(C)C)cc2)cc1 (stereo not drawn)
→ -0.19, x
CC(C)N=c1cc2n(-c3ccc(Cl)cc3)c3ccccc3nc-2cc1Nc1ccc(Cl)cc1
→ -0.57, x
C(=NCc1ccccc1)c1cn(-c2ccccc2)nc1-c1cccnc1
→ 0.34, 0.5
CCNC(=O)Oc1cccnc1I
→ -0.34, -1.1
O=c1[nH]c2cccnc2n(CCNc2ncc(C(F)(F)F)cc2Cl)c1=O
→ 1.6, x
CC(C(=O)NNC(=O)c1ccc(-n2nc(C(C)(C)C)cc2C(C)(C)C)cc1)n1nnc(-c2cc(C(F)(F)F)cc(C(F)(F)F)c2)n1 (stereo not drawn)
→ 0.025, x
Cc1cccc(NC(=O)c2ccccc2-c2nc(-c3ccccc3)no2)c1
→ -0.68, -0.25
O=S(=O)(c1cccc(S(=O)(=O)N2CCN(c3ncccn3)CC2)c1)N1CCCCC1
→ 1.1, 0.2

(continued)
Values run as follows: Ba CapD inh, AID504770
CCCc1nc2ccccc2n1C(=O)CCC(=O)O
→ 0.61, -0.75
COc1ccc(-c2cc3cc(OC)c(OC)cc3c(Cc3ccccc3)n2)cc1
→ -0.9, -0.25
COC(=O)c1cc2c(ccn2C)n1Cc1cccc(OC)c1
→ x, 0.1
CS(=O)(=O)c1ccc(NC(=O)COc2ccc(I)cc2)cc1
→ x, -0.3
O=C(c1ccc2c(c1)OCO2)N(c1ccc(Br)cc1)C1C=CS(=O)(=O)C1 (stereo not drawn)
→ x, 0.35
Cn1c(=O)cc(SCC(=O)N2CCC3(CC2)OCCO3)c2ccccc21
→ 5.6, -0.8
CC(=O)N1CCC(N(C(=O)COc2ccccc2C(=O)N2CCc3ccccc3C2)C2CC2)CC1
→ -0.22, x
Cc1sc2c(c1C)C(=O)/C(=C\Nc1ccc(Cl)cn1)S(=O)(=O)N2C
→ -0.095, -1.1
Cc1c(C(=O)O)oc2ccc(S(=O)(=O)NCCc3ccccc3)cc12
→ -0.09, -0.9
CC(C)[C@H](NS(=O)(=O)c1ccc2c(c1)OCCO2)C(=O)OCc1nc2ccccc2s1
→ x, -0.3
O=C(O)/C(=C\c1ccco1)NC(=O)c1ccco1
→ -2.1, -0.15
Cn1c(/C(C#N)=C2/CCCCCN2)nc2ccccc21
→ 1.4, 0.8
Cc1cc2cc(CNC(=S)Nc3ccccc3)ccc2n1C
→ 0.95, 0
O=C(C(Cc1ccccc1)NS(=O)(=O)c1cccc2nsnc12)N1CCc2ccccc21 (stereo not drawn)
→ -0.13, -0.35
C#CCOc1ccc(C2C3=C(CCCC3=O)N(CCC(=O)O)C3=C2C(=O)CCC3)cc1
→ x, -0.8

Other structures follow.
Values run as follows: Ba CapD inh, AID504770
CCC(=O)Nc1cccc(-n2c(C)nc3ccccc3c2=O)c1
→ x, 1.5
CC1SC(c2ccccc2)NC1=O (stereo not drawn)
→ 0.15, 2
COc1ccccc1CNC(=O)Nc1noc2c1COc1ccccc1-2
→ 16, 0.25
COC(=O)c1cc(-c2ccc(/C=C3\C(=O)NC(=O)C(C#N)=C3C)o2)ccc1Cl
→ -0.3, 2.4
CCCCc1ccc(/C=N/NC(=O)c2ccc(OC)cc2)cc1
→ -1.1, x
COc1ccc(/C=N/c2oc(-c3ccccc3)c(-c3ccccc3)c2C#N)cc1[N+](=O)[O-]
→ 4.9, x
NC(=O)c1sc2nc(-c3ccccc3)cc(-c3ccco3)c2c1N
→ x, 1.4
Cc1csc(-c2ccccc2)c1-c1ccccc1
→ -0.88, x
O=C(c1ccc(F)cc1)C1CCN(C(=O)c2ccc(-c3cccs3)s2)CC1
→ 22, 0.35
Cc1cc(C)c(C#N)c(OC(=O)c2cccs2)n1
→ 7.1, x
CC(C)OC(=O)Nc1ccc(Cl)cc1
→ 0.6, -0.9
O=C(CCN1C(=O)/C(=C/c2ccc(Cl)cc2Cl)SC1=S)Nc1cccnc1
→ -0.07, x
CC(C)[C@@H]1CC[C@@H](C)C[C@H]1O
→ -0.17, -0.15
CS(=O)(=O)Cc1cc(Cl)cc2c1OCOC2
→ -0.06, -0.6
O=C(O)CCNC(=S)Nc1cccc(C(F)(F)F)c1
→ -0.18, x

Continuation.
Values run as follows: Ba CapD inh, AID504770
CCC1=NN(C(=O)c2ccncc2)C(O)(c2ccc(Br)cc2)C1 (stereo not drawn)
→ -1.7, x
O=C(Cn1cnnc1)NCc1ccc(Cl)cc1
→ 0.04, -0.9
CC(=O)N(c1ccccc1)c1nc(/C=C/C(=O)O)cs1
→ x, 0.15
COC(CNC(=O)c1c[nH]c2ccc(S(=O)(=O)N(C)c3ccc(Br)cc3)cc2c1=O)OC
→ 3, x
CC1(C)CC(=O)c2cc3c(N)c(C(=O)NCc4ccco4)sc3nc2C1
→ x, -0.1
Cn1cccc1C(=O)OCc1cc(Cl)cc2c1OCOC2
→ x, -0.25
Cc1cc(C)nc(NS(=O)(=O)c2ccc(NC(=O)c3ccc(C(C)(C)C)cc3)cc2)n1
→ 0.33, x
O=C(c1ccccc1)c1ccc2nc(Cl)c3nnnn3c2c1
→ -0.42, 1.8
CCOC(=O)c1sc2ncnc(Nc3cc(Cl)c(OC)cc3OC)c2c1C
→ 0.67, x
CC12CCC(=O)C=C1NC(=O)CC2 (stereo not drawn)
→ -0.43, x
CSc1scc(-c2cccc(Cl)c2)c1C#N
→ 0.26, -0.6
CC(=O)N1CCN(C(=O)CN2C(=O)S/C(=C\c3ccc(Cl)cc3)C2=O)CC1
→ x, 0.45
CCc1ccc(N=C(N)N=C(N)N)cc1
→ 0.12, -0.75
CCCCC(=O)c1ccc(C)[nH]c1=S
→ -0.46, 0.05
O=C(O)CCSc1ccc(F)c(F)c1
→ x, 0.45

An excerpt of these results, with each value named:
CSc1scc(-c2cccc(Cl)c2)c1C#N
  Ba CapD inh = 0.26
  AID504770 = -0.6
CC(=O)N1CCN(C(=O)CN2C(=O)S/C(=C\c3ccc(Cl)cc3)C2=O)CC1
  Ba CapD inh = x
  AID504770 = 0.45
CCc1ccc(N=C(N)N=C(N)N)cc1
  Ba CapD inh = 0.12
  AID504770 = -0.75
CCCCC(=O)c1ccc(C)[nH]c1=S
  Ba CapD inh = -0.46
  AID504770 = 0.05

(more compounds)
Values run as follows: Ba CapD inh, AID504770
Cc1c(NC(=O)CSc2ccccn2)c(=O)n(-c2ccccc2)n1C
→ 0.49, -0.4
O=C1c2ccccc2NC(c2ccc3cccnc3c2)N1c1cccc(C(F)(F)F)c1 (stereo not drawn)
→ 11, -0.2
COc1ccc(CNS(=O)(=O)c2ccc(F)c(C(=O)Nc3ccc(Br)cc3F)c2)cc1
→ 1.9, x
O=c1onc(-c2cccs2)n1Cc1ccc(F)cc1Cl
→ 2.7, -1.4
CCn1c(=O)c(C(=O)Nn2c(Cc3ccccc3)nc3ccccc3c2=O)c(O)c2ccccc21
→ 0.56, x
CC(NC(=O)CN1CCN(C(=O)C2CCCO2)CC1)c1ccccc1 (stereo not drawn)
→ x, -0.6
CCC(C)N(C(=O)CSc1nc(-c2ccccc2)cs1)C1CCS(=O)(=O)C1 (stereo not drawn)
→ x, -0.8
Cc1cccc(N2CCN(c3nc4ccccc4c(=O)n3Cc3ccccc3)CC2C)c1 (stereo not drawn)
→ 0.59, -0.5
CCc1ccc(C2CC(=O)NC(NC(=O)Cc3ccc(OC)c(OC)c3)=N2)cc1 (stereo not drawn)
→ 0.21, 1
COC(=O)c1ccc(COn2nnc3ccc(S(=O)(=O)N4CCOCC4)cc32)o1
→ x, 0.5
COc1cc(C(F)(F)F)c(C(=O)NCc2cccc(Cl)c2Cl)cn1
→ -0.27, 0.55
O=C(CN1CCOc2ccccc21)N1CCC(Cc2ccccc2)CC1
→ -0.66, -0.5
N#CC(C#N)=C/C=C/c1cc(C#N)c(N)o1
→ x, -0.85
CC1(CN)CCCC1
→ 0.67, -0.25
Cc1cc(Br)ccc1OCCCN1CCC(C)CC1
→ -0.72, -1.3

Going on with the list.
Values run as follows: Ba CapD inh, AID504770
CNS(=O)(=O)c1ccc2ccccc2c1
→ -0.11, 0.6
COc1cccc(-c2cc(C(=O)N3CCN(C(c4ccccc4)c4ccccc4)CC3)[nH]n2)c1
→ -3, 0.15
CCn1c2ccccc2c2cc(CNC3CC3)ccc21
→ x, 1.7
CSc1cccc(N2CC(C(=O)N3CCN(S(=O)(=O)c4ccccc4Cl)CC3)CC2=O)c1 (stereo not drawn)
→ x, -0.45
COc1ccc(-c2nc3ccccc3n2CCc2ccccc2)cc1OC
→ 0.68, 0.1
COc1ccc(C2=NN(CC(=O)N3CCN(c4cccc(Cl)c4)CC3)C(=O)CC2)cc1
→ -1.7, -0.2
Cc1ccc(N(C(=O)c2ccncc2)C2C=CS(=O)(=O)C2)cc1 (stereo not drawn)
→ 0.035, 0.1
O=S(=O)(c1cc(Br)c(Cl)s1)N1CCN(C(c2ccccc2)c2ccc(Cl)cc2)CC1 (stereo not drawn)
→ 0.34, x
O=C(O/N=C/c1ccc(N2CCCCC2)c([N+](=O)[O-])c1)c1cccs1
→ -1.1, x
CC1=NN(c2ccc(C(=O)O)cc2)C(=O)/C1=C\c1ccco1
→ -1.2, 0.55
O=C(CSc1ncn[nH]1)NC12CC3CC(CC(C3)C1)C2
→ -0.46, -0.5
O=C(CCC1CC(=O)OC1c1ccccc1)Nc1nccs1 (stereo not drawn)
→ x, -0.25
COC(=O)c1cnn(C(=O)c2ccc(OC)cc2)c1N
→ 4.2, 1.1
O=C(Cn1c2ccccc2c2cn[nH]c(=O)c21)NCc1ccccc1
→ 8.6, -1.1
CN1C2CCC1CC(NS(=O)(=O)c1cc(Cl)c(Cl)cc1Cl)C2 (stereo not drawn)
→ 0.92, -0.15

The listing continues.
Values run as follows: Ba CapD inh, AID504770
C=CCn1c(SCc2ccc(C(=O)OC)cc2)nc2ccccc2c1=O
→ 0.18, 1.5
COc1cccc(NC(=O)c2ccnc(N3CCC(C(=O)N4CCOCC4)CC3)c2)c1
→ 9.4, 0.05
CC(C)c1ccc(NC(=O)Nc2cccs2)cc1
→ -0.2, -0.2
O=C(COc1ccccc1)Nc1nnc(SCc2cccc(F)c2)s1
→ 0.59, -0.65
Cn1c(-c2cc3ccc(O)c(CN4CCCC4)c3oc2=O)nc2ccccc21
→ -0.95, 1.6
CN1c2ccsc2C(=O)CS1(=O)=O
→ 1.3, 0.6
Cc1ccc(-c2csc(NC3OC(=O)c4ccccc43)n2)cc1C (stereo not drawn)
→ 4.2, 0.95
OC[C@@H]1CCCN2CCCC[C@H]12
→ x, -0.05
CCOc1ccc(/C=C2/SC(=O)N(CNc3ccccc3Br)C2=O)cc1
→ -0.64, x
O=C(c1cn(-c2ccccc2)nc1-c1cccs1)N1CCOCC1
→ x, -1
Cc1ccccc1NC(=O)NCC1CCN(C(=O)OC(C)(C)C)CC1
→ -0.58, -0.55
O=C(O)C1CSC2(c3ccccc3)CCC(=O)N12 (stereo not drawn)
→ x, -0.7
Cc1cccc(N2CCN(C(=O)CN3CCOc4ccccc43)CC2C)c1 (stereo not drawn)
→ -0.74, -0.75
COc1cc(NC(=O)CSc2nc3ccccc3n2S(=O)(=O)c2ccc(Cl)cc2)cc(OC)c1OC
→ -0.6, x
O=C(Nc1ccc(Cl)cn1)c1cccs1
→ 0.08, -1.4
